MLL AF4-AF9 inh: inhibitors of human MLL-AF4/AF9 interaction; AlphaScreen, biotin-AF4 peptide binding to FLAG-AF9; inhibition, % at 10 µM; actives 0.47% (n = 350,000);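 active = every replicate reaching a set inhibition limit, whatever the replicate mean, cut at about 25% in these data; inconclusive = mean inhibition reaches that limit but some replicates miss it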;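 also: 0% = plate neutral control median and 100% = total signal loss; the record names both 10 and 1 µM as test concentration; the first replicate is given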
Target sequence (P42568 whole entry, looked up): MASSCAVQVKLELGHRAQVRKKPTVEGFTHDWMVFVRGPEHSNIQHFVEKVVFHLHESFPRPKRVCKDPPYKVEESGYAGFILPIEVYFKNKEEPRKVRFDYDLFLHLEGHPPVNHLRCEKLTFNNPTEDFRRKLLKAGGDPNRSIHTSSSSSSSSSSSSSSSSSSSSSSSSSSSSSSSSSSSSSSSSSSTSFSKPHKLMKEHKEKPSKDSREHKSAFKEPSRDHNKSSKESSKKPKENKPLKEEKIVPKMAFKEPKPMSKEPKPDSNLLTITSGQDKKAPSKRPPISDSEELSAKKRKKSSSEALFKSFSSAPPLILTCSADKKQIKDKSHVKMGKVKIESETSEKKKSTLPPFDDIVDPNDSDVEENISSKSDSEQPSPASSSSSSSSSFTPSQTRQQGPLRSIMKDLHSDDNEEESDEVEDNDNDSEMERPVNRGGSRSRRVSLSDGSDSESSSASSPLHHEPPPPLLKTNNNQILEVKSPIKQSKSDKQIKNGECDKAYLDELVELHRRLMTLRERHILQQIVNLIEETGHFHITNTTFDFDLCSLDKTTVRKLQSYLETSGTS
FGF22 binding: FGF22 (human) thermal shift binding; Q9HCT0; recombinant FGF22 thermal shift, SYPRO orange fluorescence; percent of sucrose octasulfate shift, DMSO zero; calls only at 9.99 µM; actives 1.5% (n = 340,000); AID 651658;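 active = melting point raised past a set limit in the mean and every replicate; inconclusive = no clear call; three in four hits are not shown here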
Target sequence (Q9HCT0 whole entry, looked up): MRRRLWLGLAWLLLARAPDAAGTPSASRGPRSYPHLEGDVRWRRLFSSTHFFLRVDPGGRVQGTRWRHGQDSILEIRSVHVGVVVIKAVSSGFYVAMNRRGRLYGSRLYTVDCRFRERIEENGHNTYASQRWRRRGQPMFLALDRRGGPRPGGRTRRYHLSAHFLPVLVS
UCH37 inh: human UCH37 deubiquitinating enzyme inhibition; purified proteasome/UCH37, Ub-AMC cleavage fluorescence; Q9Y5K5; inhibition, % (test concentration not listed); actives 0.33% (n = 330,000);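 active = mean of two replicates above 20%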;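 also: 0% = compound-free wells with enzyme and 100% = wells lacking proteasome; stock transfer was 100 nL into about 20 µL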
Target sequence (Q9Y5K5 whole entry, looked up): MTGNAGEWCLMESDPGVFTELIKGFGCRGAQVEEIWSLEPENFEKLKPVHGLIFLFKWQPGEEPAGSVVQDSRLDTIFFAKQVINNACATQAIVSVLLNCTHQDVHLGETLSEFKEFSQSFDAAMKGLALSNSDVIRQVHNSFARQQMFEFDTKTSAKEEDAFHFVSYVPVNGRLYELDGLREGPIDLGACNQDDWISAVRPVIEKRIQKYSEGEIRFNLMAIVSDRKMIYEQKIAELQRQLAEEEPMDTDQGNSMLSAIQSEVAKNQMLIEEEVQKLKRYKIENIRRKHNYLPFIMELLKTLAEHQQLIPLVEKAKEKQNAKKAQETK
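Material: human UCH37 enzyme supplied as purified proteasome complex / Amount: 0.15 nM proteasome as dispensed / Buffer or medium: pH 7.4 Tris-HCl (50 mM) with ovalbumin, ATP-MgCl2, DTT / Times: preincubation 30 min, reaction 25 min, room temperature / Technique: AMC fluorescence from Ub-AMC cleavage, excitation 355 nm, emission 460 nm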
Ecoli growth: inhibitors of Escherichia coli growth; OD600 absorbance (no concentration beside the values); actives 0.21% (n = 330,000); OD600, 23 h; hits give low values;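 active = OD600 absorbance below the run mean of sample wells minus 3.6 SD, in any replicate, cut at about 0.56 in these data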;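 also: stock transfer was 300 nL into about 60 µL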
RanGTP-Imp inh: disruptors of Ran-importin-beta complex formation – biochemical, FRET, CFP-Ran, YFP-importin-beta, homogeneous, primary screen | cell-free CFP-Ran/YFP-importin-beta FRET ratio | inhibition, % (test concentration not listed) | actives 1.1% (n = 300,000) | AID 2216;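 active = most replicates above 15%; inconclusive = exactly half above 15%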;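 also: 0% = DMSO wells and 100% = Ran loaded with GDP instead of GTP; wells of about 40 µL received 100 nL stock; the first replicate is given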
Vif A3G: inhibitors of Vif binding to APOBEC3G peptide, primary screen, biochemical, TR-FRET, GST-Vif 1-94, biotin-A3G peptide, dose response retest (AID 1117319); TR-FRET GST-Vif / biotin-A3G peptide binding; higher % means a stronger effect; test concentration not given here; strong numbers were not always called active; inhibition, %; hits with a dose series show IC50 in µM; actives 0.57% (n = 260,000);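 active = above the screen mean plus three standard deviations and confirmed in dose response; inconclusive = results disagree or hit not tested in dose response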;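 also: Vif residues 1-94 fused to GST binding biotinylated APOBEC3G peptide 110-148; 0% = full assay without inhibitor and 100% = GST in place of GST-Vif; retest series ran down from 100 µM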
HNF4A DNA FP: change in binding of human HNF4 alpha to DNA; actives 0.3% (n = 360,000); HNF4a-FITC DNA binding, fluorescence polarization, 1 h; activity change, % at 10 µM; P41235; in the data active = activity change above about 30%, passing the limit was not always enough;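 also: controls were the assay level and a saturating level of protein; the project sought stronger binding though the title names inhibitors; some compounds called inactive have numbers as strong as hits; positive values seem to mean higher polarization but the record does not say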
Numbers without * were called inactive; i = inactive; ? = inconclusive; . = not tested or not shown; & = joins results of further samples.

SMILES	MLL AF4-AF9 inh	FGF22 binding	UCH37 inh	Ecoli growth	RanGTP-Imp inh	Vif A3G	HNF4A DNA FP
COc1cccc(C(CC(=O)O)NS(=O)(=O)c2ccc3c(c2)N(C(C)=O)CC(C)O3)c1 (stereo not drawn)	0.8	i	1.5	0.656	2.3	.	3.5
COc1ccc(NC(=O)c2c(NC(=O)CNCC(C)C)sc3c2CCC3)c(OC)c1	2.3	i	-11.8	0.694	.	3.1%	1.8
OCC(O)/C=N/Nc1nc(N2CCCCC2)nc(N2CCCCC2)n1 (stereo not drawn)	-2.4	i	.	.	-1.7	1.0%	-0.2
COc1cc(C2/C(=C(\O)c3ccc4c(c3)CC(C)O4)C(=O)C(=O)N2CC2CCCO2)cc(OC)c1OC (stereo not drawn)	-1.1	i	10.6	0.687	2.8	.	-5.7
Cc1cc(SCC(=O)N(C)C2CCCCC2)nc2ccccc12	-1.9	i	3.1	0.661	.	.	0.7
CCCCCn1c(N2CCOCC2)nc2c1c(=O)n(CC(N)=O)c(=O)n2C	.	.	1.6	0.684	-1.7	8.4%	0.8
COc1ccc([C@H]2[C@H](C(=O)C(C)(C)C)N3N=Cc4ccccc4C3C23C(=O)OC(C)(C)OC3=O)cc1 (stereo partly drawn)	.	.	-5.1	0.697	-0.5	0.4%	0.2
O=C(Nc1cc(Cl)cc(Cl)c1)c1cccnc1	1.4	i	6.7	0.704	0.4	.	1.7
CCOC(=O)c1sc2ncnc(OC)c2c1C	.	.	1.9	0.754	7.9	30.8%	-0.5
CCCCn1c(CN2CCN(C)CC2)nc2ccccc21	.	.	1.9	0.718	-0.7	14.3%	2.2
CCOC(=O)c1sc(SC)nc1N	-0.6	i	9.1	0.639	1.7	-5.3%	-2.4
COc1ccc(N2CCN(C(=O)CCc3ccccc3OC)CC2)cc1	3.2	i	2.3	0.638	0.1	-13.5%	-2.7
CC[C@@]12C(=O)N(c3cccc(Br)c3)C(=O)N1[C@H](c1ccc(Cl)cc1)[C@@H]1C(=O)N(C3CCCCC3)C(=O)[C@@H]12	0.2	i	0.0	.	-0.1	.	-0.1
COC(=O)Cn1ccc(N(C)C)c(C#N)c1=O	8.3	i	5.4	0.706	-1.8	0.9%	-2.7
COCCN1C[C@@H](CO)O[C@@H](n2cnc3c(NCC(C)C)ncnc32)C1	-1.7	i	.	.	.	.	-7.5
COc1cc(C)c(Cl)cc1S(=O)(=O)N1CCSC1	-4.1	i	0.9	0.593	0.6	.	0.9
C[C@@]12CCC=C[C@H]1[C@H](c1ccc3ccccc3c1/C=C/c1ccccc1)N(Cc1ccccc1)C2=O	-22.9	i	0.2	.	5.7	-0.3%	6.0
Cc1nc2[nH]c(=S)[nH]c(=O)c2nc1C	-1.8	i	-13.8	0.681	.	17.2%	-3.6
CCc1ccc(NC(=O)CNC(=O)c2nn(-c3ccc(OC)cc3)c(=O)c3ccccc23)cc1	2.0	i	-390.6	0.693	1.9	.	-3.1
COc1ccccc1CNC(=O)CN(Cc1ccc(Cl)cc1)S(C)(=O)=O	-13.4	i	1.9	0.68	1.4	-4.5%	-0.5
CSCCC(NC(=O)c1ccc(Cl)cc1Cl)C(=O)NNC(=O)c1ccncc1 (stereo not drawn)	-5.2	i	1.7	0.669	.	-9.5%	3.0
COc1ccc(CNCCC2(Cc3ccccc3)CC(C)N(C)CC2C)cc1OC (stereo not drawn)	5.3	i	1.5	0.711	-0.5	8.7%	-3.2
O=C(CN1C(=O)/C(=C/c2ccccc2)SC1=S)Nc1ncc(Cc2ccccc2)s1	.	.	.	.	-0.5	2.2%	1.9
Cn1nccc1C(=O)N1CCC(Cc2ccccc2)CC1	-0.8	i	4.0	0.683	0.0	-5.1%	-0.1
CC1=NN(c2ccccc2)C(=O)/C1=C\c1cc(C)n(-c2cccnc2)c1C	0.5	i	5.5	0.687	1.0	-2.8%	-3.4

Four entries out of the list above, arranged by the number in RanGTP-Imp inh, descending:
Molecule	MLL AF4-AF9 inh	FGF22 binding	UCH37 inh	Ecoli growth	RanGTP-Imp inh	Vif A3G	HNF4A DNA FP
CCOC(=O)c1sc2ncnc(OC)c2c1C	.	.	1.9	0.754	7.9	30.8%	-0.5
O=C(CN1C(=O)/C(=C/c2ccccc2)SC1=S)Nc1ncc(Cc2ccccc2)s1	.	.	.	.	-0.5	2.2%	1.9
CCCCn1c(CN2CCN(C)CC2)nc2ccccc21	.	.	1.9	0.718	-0.7	14.3%	2.2
COC(=O)Cn1ccc(N(C)C)c(C#N)c1=O	8.3	i	5.4	0.706	-1.8	0.9%	-2.7

Next structures follow:
SMILES	MLL AF4-AF9 inh	FGF22 binding	UCH37 inh	Ecoli growth	RanGTP-Imp inh	Vif A3G	HNF4A DNA FP
COC(=O)c1sccc1NC(=O)Nc1ccccc1OC	-6.7	i	0.5	0.715	?	1.7%	-2.3
Cc1ccc(S(=O)(=O)N2CCCCC2)cc1NC(=O)CSc1nc(N)cc(=O)[nH]1	-32.2	i	2.0	0.64	.	.	-0.1
CCCOc1ccc(Oc2ccc(S(=O)(=O)N3CCN(C)CC3)cn2)cc1	-7.2	.	-1.0	0.672	1.2	-13.1%	1.7
CCCNC(=S)N1CCN(CC)CC1	.	.	1.6	0.704	-0.2	.	2.4
COc1ccccc1-n1c(C)c(C(=O)O)c2cc(OC)c3ccccc3c21	-0.7	i	-31.0	0.684	?	2.1%	2.4
O=C(CSCc1ccc(Cl)cc1)Nc1ccc2c(c1)OCO2	.	.	3.8	0.724	2.1	11.0%	-1.8
Cc1cc(C(=O)N2CCN(c3ccccc3)CC2)no1	-18.8	i	2.0	0.682	3.5	16.7%	0.2
CCc1cc(C(c2ccc(F)cc2)N2CCOCC2)c(NC(=O)c2ccccc2)s1 (stereo not drawn)	.	.	-2.9	0.711	?	20.0%	-0.8
Cn1c(CN2CCOCC2)nnc1SCc1ccccc1	.	.	6.1	0.708	-5.8	-1.5%	-2.6
Cc1ccsc1/C=N/NC(=O)c1cccs1	.	.	.	.	1.0	12.9%	-2.3
O=C1CCC(C(=O)OCc2cc(=O)oc3ccc4ccccc4c23)=NN1	-4.9	i	-141.1	0.709	-0.9	12.8%	-1.6
Cc1ccc(S(=O)(=O)NCCNc2ccc([N+](=O)[O-])cc2)cc1	7.5	i	4.7	0.688	3.7	.	0.8
O=C(C1CCCN(Cc2ccccc2Cl)C1)N1CCCCC1 (stereo not drawn)	-3.4	i	3.1	0.65	?	5.5%	-0.5
Cc1[nH]c(C)c(S(=O)(=O)N2CCN(c3ccc(Cl)cc3)CC2)c1C(=O)N1CCCC1	2.7	i	-1.9	0.769	-2.2	.	-1.5
Cc1cccc(-n2nc([N+](=O)[O-])c(N3CCN(C(=O)c4ccco4)CC3)[n+]2[O-])c1	3.5	i	6.3	0.734	1.4	.	-1.4
NC(=O)N/N=C/c1cc(Br)ccc1OCC(=O)NCc1ccccc1	.	.	.	.	-2.2	-0.4%	0.6
O=c1c2cc(F)ccc2sn1-c1ccccc1Cl	-10.7	i	.	.	.	7.4%	1.0
CCCCC1(CC)SCC(=O)NC1=O (stereo not drawn)	-3.5	i	0.4	0.702	.	-4.2%	4.1
COc1cc(C=O)ccc1OCCOCCOc1cc(C)ccc1Cl	.	.	1.5	0.699	-3.3	20.7%	2.1
CC1(c2nnc(-c3cccc(Cl)c3)o2)CC(c2ccccc2)=NO1 (stereo not drawn)	-4.4	i	4.3	0.683	2.3	.	-2.5
O=C1C(=O)c2ccccc2C(O)=C1c1cccc([N+](=O)[O-])c1	7.1	i	8.9	0.66	0.0	15.9%	-2.2
Cc1ccc([N+](=O)[O-])cc1NC(=O)CN(C1CCCCC1)S(=O)(=O)c1ccc(Cl)cc1	.	.	0.0	0.752	-1.5	-1.8%&-3.6%	-5.0
Nc1ccc(C(=O)N/N=C/c2cn(Cc3ccccc3)c3ccccc23)cc1	0.8	i	.	.	1.2	.	2.3
O=C1c2ccccc2C(c2nnnn2Cc2ccccc2)N1Cc1cccnc1 (stereo not drawn)	-0.4	i	.	.	.	.	1.4
Cc1cccc(C(=O)NC(C)c2ccc(-n3ccnc3)cc2)c1C (stereo not drawn)	-2.7	i	4.0	0.729	1.8	-4.8%	0.7
Further records:
SMILES	MLL AF4-AF9 inh	FGF22 binding	UCH37 inh	Ecoli growth	RanGTP-Imp inh	Vif A3G	HNF4A DNA FP
CCCc1cc(C(=O)N2CCCC(N3CCN(c4ccccc4C)CC3)C2)n(C)n1 (stereo not drawn)	2.6	i	3.4	0.705	3.3	.	0.3
CCN(C(=O)CN1CCC(C(=O)OC)CC1)c1c(N)n(Cc2ccccc2)c(=O)[nH]c1=O	-1.8	i	1.9	0.73	.	.	0.8
COc1ccc([C@H]2C[C@H](O)[C@@H](n3cc(COC(=O)c4ccccc4)nn3)CN2Cc2cccs2)cc1	-0.9	i	.	.	.	1.6%	-0.1
CN(CCC#N)C(=S)NC(=O)c1ccc(S(=O)(=O)N2CCOCC2)cc1	-7.3	i	0.7	0.651	4.7	4.7%	-2.5
CCn1c2ccccc2c2cc(/C=N/NC(=O)c3ccc(O)cc3)ccc21	-0.4	i	.	.	-4.5	.	-5.8
Cc1ccc2c(c1)C(=O)N1[C@H]3c4cc(Br)ccc4OC[C@@H]3[C@H](c3ccccc3)[C@]1(C)C(=O)N2	.	i	0.1	.	.	.	0.8
Cc1ccnc(NS(=O)(=O)c2ccccc2)c1	-5.3	i	-0.2	0.696	1.9	-0.4%	5.2
COc1cc(CNCCc2ccc(S(N)(=O)=O)cc2)ccc1OCc1ccc(Cl)cc1	11.5	i	0.0	0.721	?	-3.7%	4.7
CCN(CC)C(=O)[C@H]1C[C@H](CC(=O)NCc2ccc(OC)c(OC)c2)C(=O)N2CCc3c([nH]c4cc(CCC(=O)N(C)C)ccc34)[C@]12C	-0.9	i	4.4	0.703	.	1.6%	2.8
CN(C)Cc1ccc(O)c(CCc2ccccc2)n1	.	.	0.8	0.695	-1.3	24.8%	-1.0
CO/N=C/C(=N\Nc1cc(OC)cc(OC)c1)C(=O)c1ccccc1	2.0	i	.	.	2.0	.	-1.1
Cc1c(Cl)c(C(=O)N2CCCC2)nn1C	1.2	i	-0.2	0.655	4.6	2.6%	-0.7
COc1ccccc1/C=N/Nc1cc(C)nc(N2CCOCC2)n1	1.9	i	.	.	5.0	.	0.8
O=C(NCc1ccc(C(F)(F)F)cc1)c1ccc2c(c1)S(=O)(=O)c1ccccc1C2=O	.	.	-1.2	0.706	-0.4	.	-4.4
Nc1nonc1-n1nnc(C(=O)N/N=C/c2ccc(Br)cc2)c1-c1ccc2c(c1)OCO2	-5.9	i	.	.	-1.1	.	0.9
CCN(CC)c1ccc(NC(=O)C2CCCN(S(=O)(=O)c3cnc[nH]3)C2)c(C)c1 (stereo not drawn)	-2.0	i	3.4	0.749	-2.3	?	3.7
CCCCn1nc(C(=O)N(C)Cc2nc3ccccc3c(=O)[nH]2)c2ccccc2c1=O	2.8	i	.	.	.	-6.5%	0.9
Cc1cccc(C)c1N(CC(=O)N/N=C/c1cc(Br)c(C)o1)S(C)(=O)=O	-1.3	i	.	.	?	.	-3.7
COc1ccc(C(=O)NCCS(=O)(=O)N2CCc3ccccc3C2)cc1OC	9.4	i	3.1	0.698	-4.8	-4.2%	2.1
C=C1c2cc3c(cc2NC(=S)N1Cc1ccccc1)OCO3	.	i	.	.	8.8	.	6.0
COc1cc(C=CC(=O)OCC=Cc2ccc3c(c2)OCO3)cc(OC)c1OC	2.2	i	-2.7	0.686	.	2.5%	10.2
CCn1c(SCC(N)=O)nc2c(c1=O)C1(CCCC1)Cc1ccccc1-2	.	.	1.4	0.703	-3.8	?	0.9
COC(=O)c1ccc(NC(=O)Cn2nc(-c3ccncc3)nc2SCC(=O)Nc2nccs2)cc1	.	.	1.3	0.729	-1.9	0.2%	8.5

Compound activity: PubChem, several laboratories

Some of the compounds tested, so the mix of outcomes need not match the whole.
